HPGD block = blocks human HPGD enzyme activity. Potency, µM, inactives show at the highest dose activity change, negative = inhibition, actives largely listed as inhibitors. AID 894. 4.3% of 150,000 active. purified HPGD, NADH fluorescence kinetic, PGE2 substrate. P15428; active = well fitted inhibition curve with a large enough effect (not every such curve was filed as active); inconclusive = small, poorly fitted or top-dose-only effect, or another doubt; inactive = no such curve, though single readings can be large or run the other way;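 further: top concentration of the series not given in the record; plate controls included wells without enzyme; inactives centre near -10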
Target sequence (P15428 whole entry, looked up): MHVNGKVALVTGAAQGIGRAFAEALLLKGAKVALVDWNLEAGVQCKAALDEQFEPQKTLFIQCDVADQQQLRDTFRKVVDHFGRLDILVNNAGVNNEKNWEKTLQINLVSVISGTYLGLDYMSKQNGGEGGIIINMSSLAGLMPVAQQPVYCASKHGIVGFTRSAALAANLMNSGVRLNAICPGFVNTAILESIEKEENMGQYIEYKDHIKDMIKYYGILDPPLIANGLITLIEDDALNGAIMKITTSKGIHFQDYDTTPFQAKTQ
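NADH formation kinetics: reaction with 30 uM PGE2 and 1 mM NAD+ (final), 20 nM enzyme, Tris-HCl pH 8 with Tween 20, after 15 min compound preincubation at room temperature. Fluorescence change, last versus first of five reads.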
The depositor's hits bear a star; ? = inconclusive. On the % scale 0 is the no-effect control and ±100 the full control effect; potency means the concentration at half of the fitted maximal effect. Not all compounds are listed; the hit share may differ from the screen's.

compound	HPGD block
Cc1cc(C)n(CC(O)Cn2cnc3c2c(=O)n(C)c(=O)n3C)n1 (stereo not given)	-10%
CCN(CC)CCN1C(=O)C(=O)/C(=C(/O)c2ccc(F)cc2)C1c1cccnc1 (stereo not given)	-3%
CCOC(=O)COc1ccc(CCNC(C)=O)cc1	-6%
Cc1nnc(SCC(=O)Nc2ccc(S(=O)(=O)N3CCCCC3)cc2)s1	-5%
CC(NC(=O)c1cccnc1)C(=O)N1CCCCC1 (stereo not given)	-6%
CCn1c(O)c(C=Nc2ccccc2)n(-c2ccccc2)c1=S	-21%
CNS(=O)(=O)c1cc(NC(C)=O)c(C)cc1C	-1%
CCCOc1ccc(C(=O)CCC(=O)OCC(=O)N2CC(=O)Nc3ccccc32)cc1	-13%
Fc1ccc(-n2cnnn2)c(F)c1	-5%
CS(=O)(=O)N(Cc1ccc(C(=O)NC2CCCCC2O)cc1)c1ccccc1 (stereo not given)	-6%
CCOc1ccc(-n2nnnc2SCC(=O)N2CCOCC2)cc1	-6%
Cc1ccc(CCNC(=O)CCNS(=O)(=O)c2ccc3c(c2)oc(=O)n3C)cc1	-13%
c1ccc(Cn2c(-c3cncs3)nc3ccccc32)cc1	-20%
CCN(CC)C(=O)N1CCC(NC(=O)Cc2ccccc2)CC1	-11%
C=CCNC(=O)c1onc(CSc2ccccc2)c1C(=O)O	-16%

Next part.
compound	HPGD block
O=C(CN1CCC(C(=O)c2ccc3c(c2)OCCO3)CC1)NC1CCCC1	?
CCOC(=O)C1=C(C)N(C)C(=O)C1CC(=O)O (stereo not given)	-10%
COC(CNC(=O)Cn1ncc2ccsc2c1=O)OC	-1%
CCCC(C)C(=O)N(Cc1ccccc1)c1ccccn1 (stereo not given)	0%
COc1ccc(-c2nnc(SCCC(=O)O)n2C)cc1OC	-17%
O=C(Nc1ccc2c(c1)N(Cc1ccccc1)C(=O)c1ccccc1S2)NC1CC1	-7%
CCOC(=O)c1cnn(-c2ccccc2)c1-n1cccc1C(=O)C(=O)Nc1ccccc1C(F)(F)F	-7%
CCOc1cc(C2NN=C(c3ccc(C)cc3)S2)ccc1O (stereo not given)	?
CNC(=O)OC(C)CNS(=O)(=O)c1ccc(C)cc1 (stereo not given)	-8%
COCCNC(=O)/C(C#N)=C/c1cccc(NC(=O)c2ccccc2Cl)c1	?
CC(=O)Nc1ccc2c(c1)C(=O)c1ccccc1C2=O	-4%
O=C(C[n+]1cc(-c2ccc(Cl)c(Cl)c2)n2c1CCC2)N1c2ccccc2Sc2ccccc21	-8%
CC1CCN(CCNC(=O)c2ccc(NC(=O)C3CCCO3)cc2)CC1 (stereo not given)	-3%
COc1ccc(OC)c(C(=O)COC(=O)c2ccccc2O)c1	-14%
O=C(CN1CCN(Cc2ccccc2)CC1)N/N=C\C=C/c1ccco1	-12%

Other results.
compound	HPGD block
O=C(CSc1nc2ccccc2o1)NC(=O)NCc1ccco1	-20%
C=CCN(CC=C)C(=O)CN1C(=O)c2ccccc2C1=O	0%
CCCCn1nnnc1NCc1ccc(OC)c(OC)c1	-12%
O=C(O)CCc1ccc(-c2cccs2)o1	22µM*
c1ccc(CSc2nnnn2-c2cccc3ccccc23)nc1	-4%
Cc1ccc(C(=O)COC(=O)CCc2ccc(S(=O)(=O)N3CCCCC3)cc2)cc1	-2%
Cc1cccc(C)c1NC(=O)CSc1nnc(NC(=O)CN2CCOCC2)s1	-17%
COc1cccc(N2C(=O)C(c3ccccc3)=C(c3nc4ccccc4s3)C2NC(C)=O)c1 (stereo not given)	-18%
CCCNC(=S)N1CCC(NC(=O)C23CC4CC(CC(C4)C2)C3)CC1	2%
COC(=O)c1nn(-c2ccccc2)c(Sc2ccc(Br)cc2)c1/C=N/O	-8%
O=C1COc2ccc(C(=O)c3ccccc3C(=O)NCc3ccccc3)cc2N1	1%
CN1c2ccccc2C(C)(C)C12CCCC(=O)N2 (stereo not given)	-11%
CCCOc1ccc2c(C)c(CC(=O)OC)c(=O)oc2c1	?
O=C(CCCc1nc(-c2ccccc2)no1)N1CCOCC1	-13%
O=C(CSc1nc(-c2ccc(F)cc2)cc(C(F)(F)F)n1)NCCN1CCOCC1	3%

Sorted by length of the SMILES (falling): some entries from above.
compound	HPGD block
Cc1ccc(C(=O)COC(=O)CCc2ccc(S(=O)(=O)N3CCCCC3)cc2)cc1	-2%
O=C(CSc1nc(-c2ccc(F)cc2)cc(C(F)(F)F)n1)NCCN1CCOCC1	3%
COC(=O)c1nn(-c2ccccc2)c(Sc2ccc(Br)cc2)c1/C=N/O	-8%
CCCNC(=S)N1CCC(NC(=O)C23CC4CC(CC(C4)C2)C3)CC1	2%
c1ccc(CSc2nnnn2-c2cccc3ccccc23)nc1	-4%
CN1c2ccccc2C(C)(C)C12CCCC(=O)N2 (stereo not given)	-11%

Next section
compound	HPGD block
O=C(Nc1ccc(Cl)cn1)Nc1cccs1	1%
N=C1/C(=C/c2cccn2Cc2ccc(Cl)cc2)C(=O)N=C2SC=CN12	?
CC[C@@H]1CC(=O)N(SC[C@H](N)C(=O)O)C1=O	-6%
O=C(N/N=C/c1ccccc1OC(=O)c1ccc2c(c1)OCO2)c1cccc(F)c1	-2%
CCN1N=C(c2cc(Cl)sc2Cl)CSC1=O	?
O=C(NC1CCCCC1)C1CCN(C(=O)NCc2ccccc2)CC1	-9%
CC(C)(C)C(=O)COC(=O)c1ccc(O)cc1	1%
c1ccc(Cn2nnc3c(N4CCC5(CC4)OCCO5)ncnc32)cc1	-4%
Cc1nn(CC(=O)Nc2cccnc2N2CCOCC2)c(=O)c2ccccc12	-8%
O=C(CCC1CCCCC1)NNC(=O)NC12CC3CC(CC(C3)C1)C2	-8%
C=CC(=O)NC(C)C	-1%
CCOC(=O)CC(=O)CSc1nc(-c2ccccc2)cc(-c2ccccc2)c1C#N	?
CCn1c(SC(C)C)nnc1-c1cc(-c2ccccc2)sc1N	-23%
CCCCOC(=O)Nc1ccc(C(N)=O)cc1	-3%
COC(=O)c1sc(-c2ccccc2)cc1NC(=O)c1ccc(OC)cc1	-24%

Next section.
compound	HPGD block
CC(=O)Nc1ccc(C(=O)OCC(=O)N(Cc2ccccc2)C(C)(C)C)cc1	-4%
CC(=O)Nc1nc2ccc(C(=O)NC3CCCCC3)cc2s1	?
COC(=O)[C@@]1(Cc2ccc(F)cc2)[C@H]2c3cc(C(=O)N(C)C)n(Cc4cc(F)c(F)c(F)c4)c3C[C@H]2CN1C(=O)c1ccccc1	-4%
CN(Cc1cn(C)c2ccccc12)C(=S)Nc1cc(F)cc(F)c1	-9%
Cc1ccc(-c2cc(-c3ccccc3)nc(Cl)n2)cc1	?
O=C(CN1C(=O)C2C3c4ccccc4C(c4ccccc43)C2C1=O)N1CCOCC1 (stereo not given)	-3%
Cc1ccccc1N=CC=C1OC(C)(C)C(C)(C)O1	?
Nc1nc(Cc2ccccc2)nc(Cc2ccccc2)c1-c1ccccc1	-6%
COc1ccc(C2Nc3ccccc3C(=O)N2Cc2ccccc2)cc1COc1ccccn1 (stereo not given)	?
COc1ccc(Cl)cc1-c1nc(-c2ccncc2)no1	?
Cc1nc2nc(C)c(CCC(=O)NCCC3=CCCCC3)c(C)n2n1	0%
Cc1cc(=O)n(-c2ccc(O)cc2)[nH]1	-9%
COc1cccc(NC(=O)c2nn(C34CC5CC(CC(C5)C3)C4)cc2[N+](=O)[O-])c1	-5%
Cc1cc(C)cc(OC2CCCCC2NS(=O)(=O)c2ccccc2)c1 (stereo not given)	-15%
O=C(c1cccc(F)c1)N1CCN(S(=O)(=O)c2ccc(C(F)(F)F)cc2)CC1	5%

Carrying on.
compound	HPGD block
O=C1NC(=S)SC1=C1CCCC1	35µM*
FC(F)(F)c1ccc(N2CCN(c3ncnc4c3nnn4Cc3ccccc3Cl)CC2)cc1	?
NC(=O)c1cccn1Cc1cccc(Cl)c1	-20%
CCc1ccc(N(C(=O)c2ccoc2C)C(C(=O)NC2CCCC2)c2ccc(OC)cc2)cc1 (stereo not given)	-5%
CC(C)Cc1nnc(NC(=O)CCC(=O)N2CCN(S(=O)(=O)c3ccccc3)CC2)s1	-3%
Cc1cc(NC(=O)c2noc3c2CCCCC3)no1	-12%
CCOC(=O)C(NS(=O)(=O)c1ccc(Br)cc1)C(C)C (stereo not given)	-10%
CCOC(=O)c1c(NC(=O)CN(CC)CC)sc2c1CCN(C(=O)OCC)C2	?
CCc1ccc(NCc2nc3ccccc3c(=O)[nH]2)cc1	-13%
N#Cc1nc(-c2ccccc2F)oc1NCc1ccccc1	?
N#C/C(=N/O)c1nc(-c2ccc(F)cc2)cs1	-16%
COC(=O)c1cccc(N(C(=O)c2cnccn2)C(C(=O)NC2CCCCC2)c2cn(C)nc2C)c1 (stereo not given)	-9%
CCc1nnc(NC(=O)CCC(=O)N2CCN(Cc3ccc(Cl)cc3)CC2)s1	4%
CS(=O)(=O)Nc1ccc(Nc2c3ccccc3nc3ccccc23)cc1	-13%
COc1ccc(C2C(C(C)=O)=C(O)C(=O)N2CCCn2ccnc2)cc1 (stereo not given)	-26%

Following part:
compound	HPGD block
O=C(Cc1cccs1)Nc1nc(-c2ccc(F)cc2F)cs1	-23%
CC1CCCC(NC(=O)COC(=O)Cc2cn3ccsc3n2)C1C (stereo not given)	-13%
O=C(c1nn(Cc2ccccc2)c(=O)c2ccccc12)N1CCN(c2ccccn2)CC1	-7%
COc1ccc(-c2nc(NC(=O)C3CCN(c4nc5ccccc5o4)CC3)sc2C)cc1	-5%
CCOC(=O)COc1ccc2c3c(c(=O)oc2c1C)CCC3	?
O=C(Nc1nccs1)c1ccc(Cl)c(S(=O)(=O)N2CCOCC2)c1	-6%
CC1(C)Cc2c(sc3nc(-c4cc5ccccc5o4)n(N)c(=O)c23)CO1	?
O=C(O)c1cn(-c2ccccc2)c(=O)c2ccccc12	-10%
CC(C)/C=N/NC(=O)c1cccc(N2CCCC2=O)c1	-13%
CN(C)c1ccc(NC(=O)Cn2c(=O)n(Cc3ccccc3)c(=O)c3ccccc32)cc1	-11%
Cn1c(COc2ccccc2)nnc1SCCSc1nnc(COc2ccccc2)n1C	-13%
O=C1CN(C(=O)c2ccco2)C(c2ccccc2)c2cc(Cl)ccc2N1 (stereo not given)	1%
COC(=O)c1ccc(NC(=O)COc2ccc(S(=O)(=O)N3CCCCC3)cc2)cc1	1%
CCCOc1ccc(N2C(=O)CC(N(CCc3ccc(OC)cc3)C(=O)c3cccc(F)c3)C2=O)cc1 (stereo not given)	-8%
CCOC(=O)N1CCC(N2Cc3cccc(C(=O)NCc4ccccc4OC)c3C2=O)CC1	-11%

(further entries)
compound	HPGD block
O=C(NNC(=O)c1ccccc1O)c1ccc(Cl)cc1	-11%
COc1ccccc1N(Cc1ccccc1)S(=O)(=O)c1cccc(C(=O)O)c1	2%
CC(C)(CCl)C(=O)Nc1ccc(Sc2ccc(F)cc2)cc1	-30%
Cc1[nH]n2c(=O)cc(Cc3ccccc3)nc2c1C#N	-24%
COc1cccc(CN=CC2=C(O)CC(C)(C)CC2=O)c1OC	?
COCCn1c(-c2cc(OC)c(OC)c(OC)c2)nc2nc3ccccc3nc21	-22%
CC(C)OC(=O)CSc1nnc2n1C(C)(C)Cc1ccccc1-2	-14%
CCn1c(Cc2ccccc2)nnc1SCC(=O)Nc1ccc(N2CCOCC2)c(Cl)c1	-9%
O=C(Nc1cccc(C(F)(F)F)c1)c1cnc2n(c1=O)CCS2	-26%
O=[N+]([O-])c1ccc(-c2ccn[nH]2)o1	-6%
CCOC(=O)c1c(O)c2c(n(Cc3ccco3)c1=O)CCCC2	-7%
CCN(CCNC(=O)c1ccc(CSc2nc3ccncc3[nH]2)cc1)c1ccccc1	-13%
Cc1c(/C=C/C(=O)c2cccs2)cnn1C	?
Cn1c(=O)[nH]c(=O)c2c1nc1n2CCCN1CCc1ccccc1	-6%
COC(=O)c1cnn2c(C(F)(F)F)cc(-c3ccc(F)cc3)nc12	?

Next part
compound	HPGD block
O=C(c1cccc2ccccc12)N1CCN(c2ccccc2F)CC1	-14%
O=C(CSc1nnc(SCC(=O)c2ccco2)s1)c1ccco1	32µM*
COc1ccc(OCC(O)CN2CCN(c3ncccn3)CC2)cc1 (stereo not given)	-13%
COc1ccc(CNC(=O)C2CSC(=O)C2)cc1 (stereo not given)	-10%
CCOC(=O)c1ccc(NC2=CC(=O)C(=O)c3ccccc32)cc1	4.5µM*
COc1ccc(-n2nnc3c(=O)n(CC(=O)N4CCCC4)cnc32)cc1	-3%
Cc1cc(N2CCOCC2)nc(-c2ccc(Br)cc2)n1	-7%
CCC1=C(OC(=O)N(CC)CC)N2C(=O)OC(=NCCOC)[C@]2(C)[C@H]2C1=CC[C@H]1C(=O)NC(=O)[C@H]12	-5%
Cc1ccc2cc(/C=N/NC(=O)[C@H](C)NC(=O)OC(C)(C)C)c(Cl)nc2c1	-5%
C/C=C/COC(=O)c1[nH]c2c(c1C)C(=O)CC(c1ccco1)C2 (stereo not given)	-13%
O=C(O)c1cc(NCc2ccccc2C(F)(F)F)ccc1N1CCOCC1	-6%
CCc1ccc(C(=O)COC(=O)CNC(=O)c2ccco2)cc1	-5%
CCOc1ccc(OCC)c(S(=O)(=O)NCc2ccccn2)c1	-5%
COc1cccc(CNC(=O)C2CCN(S(=O)(=O)c3cccs3)CC2)c1	-13%
CCc1ccc(NC(=O)Cc2ccc(OC)cc2)cc1	-11%

Source: PubChem
